KCNQ2 pot: potentiators of rat KCNQ2 potassium channel. B-score at 10 µM. 310,000 tested, 0.54% active. CHO-K1 KCNQ2, FluxOR thallium flux fluorescence; hits give high values. AID 2239. O88943;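 active means fluorescence ratio B-score at least 3 SD of library B-scores, with initial fluorescence B-score within 3 SD, cut at about 5.3 in these data; same plate scores as AID 2156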;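 further: B-score of peak minus minimum over baseline fluorescence ratio after K+ and Tl+ stimulus; positive B-score means potentiation of KCNQ2 with more thallium influx and brighter signal; only the inactives scoring about 0 or higher are listed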
Target sequence (O88943 whole entry, looked up): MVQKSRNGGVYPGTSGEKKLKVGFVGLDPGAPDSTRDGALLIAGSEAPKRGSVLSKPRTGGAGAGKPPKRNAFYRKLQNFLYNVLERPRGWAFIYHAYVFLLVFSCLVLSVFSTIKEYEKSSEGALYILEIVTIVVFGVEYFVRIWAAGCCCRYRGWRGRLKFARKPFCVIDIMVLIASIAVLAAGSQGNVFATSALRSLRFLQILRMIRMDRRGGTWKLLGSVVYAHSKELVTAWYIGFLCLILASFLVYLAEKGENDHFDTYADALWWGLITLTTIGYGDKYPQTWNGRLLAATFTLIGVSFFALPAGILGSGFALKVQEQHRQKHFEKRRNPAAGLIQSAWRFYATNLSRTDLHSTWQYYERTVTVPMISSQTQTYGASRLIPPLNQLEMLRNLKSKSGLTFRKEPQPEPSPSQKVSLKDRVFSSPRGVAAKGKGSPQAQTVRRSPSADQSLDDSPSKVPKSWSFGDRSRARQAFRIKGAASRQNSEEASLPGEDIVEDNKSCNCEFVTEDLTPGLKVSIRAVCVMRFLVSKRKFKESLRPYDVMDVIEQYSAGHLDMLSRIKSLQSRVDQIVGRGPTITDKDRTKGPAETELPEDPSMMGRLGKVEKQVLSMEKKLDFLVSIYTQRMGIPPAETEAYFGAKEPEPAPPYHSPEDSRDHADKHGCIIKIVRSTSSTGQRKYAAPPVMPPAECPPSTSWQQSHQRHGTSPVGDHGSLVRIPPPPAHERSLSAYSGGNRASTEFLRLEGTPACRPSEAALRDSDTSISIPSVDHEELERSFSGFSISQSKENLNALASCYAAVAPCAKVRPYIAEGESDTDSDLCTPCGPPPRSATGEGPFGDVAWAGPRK
KCNQ2 pot baseline: also measured in KCNQ2 pot; calls as there; B-score; compound at 10 µM; measured here: initial fluorescence intensity artifact check;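 brightness before thallium and not channel activity; 0 = typical well and far values either way flag optical interference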
Numbers without * were called inactive.

SMILES	KCNQ2 pot	KCNQ2 pot baseline
O=C(NCCc1ccccc1)C1CCC(CNc2c(N3CCCCC3)c(=O)c2=O)CC1 (stereo unspecified)	0.53	-0.03
O=C1CC(Nc2ccc(N3CCOCC3)cc2)C(=O)N1C1CCCCC1 (stereo unspecified)	0.55	3.6
NS(=O)(=O)c1cccc(NC(=O)COC(=O)C2(c3cccc(F)c3)CCCC2)c1	2.2	-0.59
NC1=NC(=O)C2(COC(c3cccnc3)OC2)S1 (stereo unspecified)	0.51	-1.9
Cc1cccc(CN2CCOCCS2(=O)=O)c1	0.34	-1.4
COc1ccccc1-n1c(=O)[nH]c2c(C(N)=O)nc(C3CCCCC3)nc21	0.83	0.69
O=C(/C=C/c1ccco1)Nc1ccc(-c2nc3ccccc3[nH]2)cc1	0.51	-0.16
Cc1ccccc1N(C(=O)CCC(=O)Nc1ccccn1)C(C(=O)NC(C)C)c1ccc(O)cc1 (stereo unspecified)	1.3	-0.51
Cc1cc(C(=O)COc2cccnc2[N+](=O)[O-])c(C)n1-c1ccccc1	0.02	-0.88
CCN(CC(=O)Nc1ccc2c(c1)OCCO2)C(=O)c1cccc(OCC(C)C)c1	0.01	-0.72
COc1ccc(N2CCC(CNC(=O)Nc3ccc(C)c(C)c3)C2)cc1 (stereo unspecified)	1.2	-1.2
CCCCSc1nc2c(=O)[nH][nH]c(=O)c2n1Cc1ccccc1	0.44	-1.7
CC1(C)Cc2cccc(C(=O)Nc3ccncc3)c2O1	1.4	-0.38
CC(Oc1ccccc1)C(=O)Nc1ccc(S(=O)(=O)N2CCN(C)CC2)cc1 (stereo unspecified)	0.32	-1.1
Cc1ccc(-n2cnc3c(sc4nccc(N(C)C)c43)c2=O)cc1	0.01	-0.75
COc1ccc(CNC(=O)CNC(=O)c2cccs2)c(OC)c1	1.6	-1.4
CCOC(=O)C1(C)NC(c2cccs2)C2C(=O)N(c3ccc(C)cc3)C(=O)C21 (stereo unspecified)	0.41	-0.13
COC(=O)c1ccc(C2NC(=O)c3c(sc(C)c3C)N2)cc1 (stereo unspecified)	0.35	-0.41
COc1ccc(/C=C\C(=O)NCC(=O)N/N=C/c2cccc(OC)c2O)cc1	0.03	1.1
O=C(Cc1cccs1)NC1(C(=O)NC2CCCC2)CCCCC1	0.08	-0.79
CCOc1cc(/C=C2\C(=O)N(CCc3ccc(OC)c(OC)c3)C(C)=C2C(=O)OC)ccc1O	0.67	-1
COc1ccc(OCCCC(=O)OCC(=O)Nc2sccc2C(N)=O)cc1	2.3	0.06
C/C(CC1CC(C)(C)OC1=O)=N\NC(N)=S (stereo unspecified)	0.13	-0.58
O=C(CSc1nnc(C2COc3ccccc3O2)o1)N1CCN(c2ccccc2)CC1 (stereo unspecified)	0.01	-0.55

Given as labelled records: part of the list above
COc1ccc(/C=C\C(=O)NCC(=O)N/N=C/c2cccc(OC)c2O)cc1
  KCNQ2 pot: 0.03; KCNQ2 pot baseline: 1.1

O=C(Cc1cccs1)NC1(C(=O)NC2CCCC2)CCCCC1
  KCNQ2 pot: 0.08; KCNQ2 pot baseline: -0.79

CCOc1cc(/C=C2\C(=O)N(CCc3ccc(OC)c(OC)c3)C(C)=C2C(=O)OC)ccc1O
  KCNQ2 pot: 0.67; KCNQ2 pot baseline: -1

COc1ccc(OCCCC(=O)OCC(=O)Nc2sccc2C(N)=O)cc1
  KCNQ2 pot: 2.3; KCNQ2 pot baseline: 0.06

The list goes on.
SMILES	KCNQ2 pot	KCNQ2 pot baseline
CCCCC(=O)Nc1cccc(NC(=O)c2ccc3c(c2)OCO3)c1	0.32	-2.5
COC(=O)c1ccc(NC(=O)C(=O)N2CCN(C(=S)Nc3cccc(C)c3C)CC2)cc1	0.78	2.3
Clc1ccc(-c2nnc(C34CC5CC(CC(C5)C3)C4)o2)cn1	0.51	-0.17
O=C1COc2ccc(C(=O)COC(=O)Cc3ccc(Cl)cc3)cc2N1	1.3	-0.71
Cc1ccc(SCc2cc(=O)[nH]c(/N=C(\N)Nc3ccccc3Sc3ccccc3)n2)cc1	0.56	0
CCn1c(=O)c2c(n3c(=S)[nH]nc13)-c1ccccc1CC21CCCCC1	2.9	-2.1
COCCCNC(=O)c1cc(C)nn1-c1ccccc1	0.21	1.4
CSc1nc(Cl)cc(N2CCOCC2)n1	1.1	-1.4
Cc1ccc(S(=O)(=O)NC2=NCN(C(C)C)CN2)cc1	1.1	0.73
Cc1c(C(=O)NCc2cccnc2)sc2ncn(CC(=O)N3CCCCC3C)c(=O)c12 (stereo unspecified)	0.45	3.9
COCC1CCCCN1Cc1cn(-c2ccccc2)nc1-c1ccc2c(c1)OCO2 (stereo unspecified)	0.98	2.2
Cc1cccc(CN2CCC(N3CC(C)OC(C)C3)CC2)c1 (stereo unspecified)	0.03	1.9
CCOC(=O)C1=C(C)NC(=O)NC1c1cc(Br)c(O)c(OC)c1 (stereo unspecified)	0.42	1.1
Brc1cc(Br)cc(CN2CCSCC2)c1	0.59	-1.2
O=NNc1nc2ccccc2n1Cc1ccccc1	0.48	-1.4
CC(C)(C)c1ccc(C(=O)Nc2ccc(O)c3c(=O)cc(-c4cccc(Cl)c4)oc23)cc1	0.24	0.1
O=C(c1nn2c(C(F)(F)F)cc(-c3ccc(F)cc3)nc2c1Cl)N1CCOCC1	0.62	-1.1
CSc1ccc(CN2CCC(N3CC(C)OC(C)C3)CC2)cc1 (stereo unspecified)	0.6	-0.44
O=C(Nc1cccc(-c2nc3ccccc3s2)c1)c1cccs1	0.05	-0.06
O=C(c1ccc(O)cc1)c1ccc(Cl)cc1	1.8	-2.2
COc1ccc(N2C(=O)CC(c3ccccc3)C2=O)cc1 (stereo unspecified)	0.01	-0.29
Cc1nc2c(-c3ccccc3)c(C)[nH]n2c(=O)c1Cl	0.39	-1
CC(C)(C)NC(=O)C(OC(=O)c1cccs1)c1ccc(F)cc1 (stereo unspecified)	0.86	-1.7
CC(C)Cc1nnc(NC(=O)CS(=O)(=O)Cc2ccccc2)s1	0.74	-0.13
Cc1cc(C)cc(Oc2coc3c(CN(C)C)c(O)ccc3c2=O)c1	0.88	0.16
O=S(=O)(c1ccccc1)N(C1=NCCS1)S(=O)(=O)c1ccccc1	0.52	0.05
COc1ccccc1CNc1nc(SC)ncc1CO	0.68	-1.3
O=C(CCCn1c(=O)[nH]c2cc(Cl)ccc2c1=O)NCCCN1CCCC1=O	0.85	-1.1
Fc1ccc(NC(=S)N/N=C/c2ccc(F)c(F)c2)c(F)c1	0.55	1.7
C=CCn1c(O)c(N=NC(=O)OC(C)(C)C)c2ccccc21	0.88	0.79
Cc1ccc(OCCC(=O)NCCc2ccc(S(N)(=O)=O)cc2)cc1	0.97	-2.3
CC1(c2ccc3ccccc3c2)NC(=O)N(CC(=O)Nc2cccc(S(=O)(=O)N3CCOCC3)c2)C1=O (stereo unspecified)	0.01	-0.68
Cc1ccc(S(=O)(=O)NCCC(=O)Nc2ccc(C)cc2C(=O)c2ccccc2)cc1	5.4*	2.2*
Cc1ccc(-c2csc3ncnc(NS(=O)(=O)c4ccc(Cl)cc4)c23)cc1	1.5	0.61
COCCN(CCOC)C(=O)Nc1ccc(Cl)cc1	0.55	-0.69
COc1ccc(C(=O)NCC(=O)N/N=C/c2cccnc2)cc1	1.2	1.3
Cc1ccc(C(C)(C)C)c(OCCOCCN2CCCC2)c1	0.03	2.4
COc1cccc2cc(C(=O)C3=C(O)C(=O)N(CCN4CCOCC4)C3c3cccs3)oc12 (stereo unspecified)	0.23	0.97
C=CCn1c(-c2cc(-c3ccccc3)sc2N)n[nH]c1=S	1.5	-0.42
O=C(N/N=C/c1ccc(O)c(O)c1)N/N=C/c1ccc(O)c(O)c1	0.09	-0.84
O=C(NCc1ccc(F)cc1)N[C@@H](Cc1ccccc1)C(=O)O	0.91	-0.41
COc1ccc(C)cc1N(CC(=O)NC(C)c1ccccc1)S(C)(=O)=O (stereo unspecified)	0.51	-1.9
COc1ccccc1OCCOCCN1CCCC1	1.4	-0.43
CC(C)c1ccc(C(=O)N2CCN(CCO)CC2)cc1	0.33	0.18
O=C(CSc1nc(N2CCCCC2)nc(N2CCCCC2)n1)N1CCN(c2ccccc2)CC1	19*	-0.12*
CC1CN(C(=O)c2cc(S(=O)(=O)N3CCCC3)c(Cl)cc2Cl)CC(C)O1 (stereo unspecified)	0.46	-1.6
CS(=O)(=O)N(CC(=O)N/N=C/c1cc2c(cc1Br)OCO2)c1ccccc1Br	0.59	-0.33
O=C(CNc1ccc(Br)cc1)c1ccc(O)cc1	0.32	3.1
CNS(=O)(=O)c1cn(CC(=O)NCc2cccc(OC)c2)cc1S(=O)(=O)NC	2.3	0.22
Cc1ccc(NC(=O)CSc2nnnn2-c2ccc3c(c2)OCO3)cc1C	0.09	0.14
Cc1cccn2c(=O)c(/C=C(\C#N)C(=O)NCc3ccco3)c(N3CCC(C(N)=O)CC3)nc12	1.9	-0.85
C=CCN=C1S/C(=C/c2ccc([N+](=O)[O-])cc2)C(=O)N1CC=C	0.2	-1.4
Cc1ccc(-n2nnnc2/C=C\Nc2cc(C)on2)cc1	0.22	-0.09
COc1ccc(N2CC(NS(=O)(=O)c3cccnc3)CC2=O)cc1 (stereo unspecified)	0.85	-0.09
CCc1c(C(=O)N/N=C/c2ccsc2)csc1C	3.5	-0.23
CCCCc1cc(=O)oc2c(CN(C)C)c(O)ccc12	2.2	-0.16
Cc1noc(C)c1COc1ccc(C(=O)N2CCCC(C(F)(F)F)C2)cc1 (stereo unspecified)	0.97	-1.3
C/C=C/c1ccc(Oc2nnnn2-c2ccc(C(=O)O)cc2)c(OC)c1	1	0.8
C=CCSc1nc(-c2ccccc2)c(C#N)c(=O)[nH]1	1.6	-0.68
COc1ccc(C2C(C#N)=C(C)NC3=C2C(=O)CC(C)(C)C3)c(OC)c1 (stereo unspecified)	2	-0.05

(listing goes on)
SMILES	KCNQ2 pot	KCNQ2 pot baseline
Cc1ccc(S(=O)(=O)NCC(=O)Nc2ccc3c(c2)OCO3)cc1	1.2	-1.9
CCOC(=O)CCc1c(C)c2ccc(OCc3nn[nH]n3)c(C)c2oc1=O	0.5	-1
O=C(NCc1ccco1)/C(=C/c1ccc(Br)cc1)NC(=O)c1ccco1	0.05	0.54
Cc1oc2c(CN3CCCC3)c(O)ccc2c(=O)c1-c1ccc(Cl)cc1	0.39	-1.5
CCC(Oc1ccccc1)C(=O)N1CCN(c2ccccn2)CC1 (stereo unspecified)	0.2	-0.28
O=S(=O)(Cc1noc(-c2ccccc2Cl)n1)c1ccccn1	1.6	-1.5
COc1ccccc1/C=C(\C#N)C(=O)Nc1ccc(S(N)(=O)=O)cc1	0.18	-0.1
O=C(O)/C=C/c1cnn(-c2ccccc2)c1	0.87	0.01
O=C(C1=NN(c2ccccc2)C2C(=O)N(c3ccccc3)C(=O)C12)c1ccccc1 (stereo unspecified)	0.01	0.85
COc1ccccc1CNC(=O)CCNS(=O)(=O)c1ccc2c(c1)oc(=O)n2C	1.3	-1.5
O=C(COc1cccc(NC(=O)c2cccc([N+](=O)[O-])c2)c1)c1ccc(Br)cc1	8.9*	0.58*
Cc1ccc(C(=O)OCC(=O)NCc2cccs2)cc1S(=O)(=O)N1CCOCC1	2.3	-0.83

Molecules shown so far that have a tert-butyl group, in the order listed:
SMILES	KCNQ2 pot	KCNQ2 pot baseline
CC(C)(C)c1ccc(C(=O)Nc2ccc(O)c3c(=O)cc(-c4cccc(Cl)c4)oc23)cc1	0.24	0.1
CC(C)(C)NC(=O)C(OC(=O)c1cccs1)c1ccc(F)cc1 (stereo unspecified)	0.86	-1.7
C=CCn1c(O)c(N=NC(=O)OC(C)(C)C)c2ccccc21	0.88	0.79
Cc1ccc(C(C)(C)C)c(OCCOCCN2CCCC2)c1	0.03	2.4

Next section.
SMILES	KCNQ2 pot	KCNQ2 pot baseline
O=C1c2ccccc2C(=O)N1CC#CCN1CCN(C2CCCCC2)CC1	1.5	1.2
CCCCn1nnnc1NCc1cccnc1	1.1	-0.88
COc1ccccc1C(=O)N1CCCC(c2nc(-c3cc(OC)c(OC)c(OC)c3)no2)C1 (stereo unspecified)	0.8	0.51
Cc1nc(C(=O)N2CCOCC2)sc1C1(C)CC(c2ccccc2)=NO1 (stereo unspecified)	1.5	-1.5
CCn1cc(CN2CCC(C(=O)Nc3ccc(Oc4cccnc4)cc3)CC2)c(C)n1	2	0
CN(C)CCCNc1c2c(nc3cc(-c4cccc(F)c4)nn13)CCC2	0.42	-0.38
COc1ccc(OC)c(-c2oc3ccccc3c(=O)c2O)c1	0.55	0.25
CN(C)CCCN(C(=O)COc1ccccc1)c1nc2cc3c(cc2s1)OCO3	0.92	1.9
COc1cc(CN(C)CCc2ccccn2)cc(OC)c1OC	1	0.97
Cc1nc(C)c(C(=O)C2=C(O)C(=O)N(CCN3CCOCC3)C2c2cccnc2)s1 (stereo unspecified)	0.94	-0.38
Cc1cc(C)n(-c2cc(=O)n(C)c(=O)n2C)n1	0.9	-0.52
S=C(NCCc1ccccn1)NC1CCCCC1	0.32	-0.83
CC(C)C(C)NC(=O)COc1ccc([N+](=O)[O-])cc1Cl (stereo unspecified)	0.57	-1.6
COc1ccc2c(c1)Cc1sc(NC(C)=O)nc1-2	1.8	3.1
CCCNC(=O)Cn1cnc2sc(C(=O)NCCCN3CCOCC3)c(C)c2c1=O	0.31	-3.1
COc1ccc(C(=O)NCC(=O)OCc2ccc(F)cc2Cl)cc1OC	0.02	0.8
Cc1ccc(N(CCC#N)C(=O)COC(=O)c2ccccn2)cc1	0.28	-0.53
Cc1cc(C)c(NC(=O)COC(=O)CCn2c(C)csc2=O)c(C)c1	1.5	0.16
O=C(Nc1ccc(S(=O)(=O)Nc2cnc3ccccc3n2)cc1)c1ccccc1Br	0.19	-1.2
CCC(C)(C)C(=O)Nc1nnc(CCc2ccccc2)s1	0.03	0.09

These rows are one share of the data; the hit share may differ from the screen's.
